Screening results deposited in PubChem by several laboratories.
TNAP activation fold – human TNAP enzyme activators, primary screen, biochemical, luminescent, no phosphate acceptor, uHTS (AID 1001); Alkaline phosphatase, tissue-nonspecific isozyme (Homo sapiens); one-dose activation fold at 20 µM; EC50 in µM for titrated hits; purified TNAP, luminescent activation assay, no phosphate acceptor; higher activation fold means a stronger effect; actives 0.03% (n = 200,000); in the data active means activation fold from about 3, or a potency from the dose series; inactive means the rest, 99 in 100 with activation fold below about 1.6; further: many of its hits are not listed in these tables
XIAP displacement – XIAP antagonists, biochemical, IAP family, fluorescence polarization (AID 1018) | actives 0.007% (n = 200,000) | XIAP BIR domain, fluorescence polarization peptide displacement; higher % means a stronger effect | E3 ubiquitin-protein ligase XIAP (Homo sapiens) | displacement, % at 20 µM, or IC50 in µM where a hit was titrated; in the data active means displacement above about 50%; further: a part of the inactive calls stands beside numbers as strong as those of hits
Myeloid diff 2 – induction of myeloid progenitor differentiation, primary screen, cell-based, flow cytometry, MLPCN library. ER-HoxA9 myeloid progenitors, lysozyme-GFP differentiation. calls only at 10 µM. actives 1% (n = 360,000). AID 624256, 2012;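 active means normalized GFP-positive differentiation at or above the plate's own cutoff, the solvent-only control mean plus 3 SD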;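 further: cells exposed to compound for four days before flow analysis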
P. falciparum M17LAP – P. falciparum M17LAP inhibitors, primary screen, biochemical, fluorogenic H-Leu-NHMec substrate, 1536-well (AID 1619) | Leucine aminopeptidase (Plasmodium falciparum (isolate 3D7)) | one-dose inhibition, % at 30 µM; IC50 in µM for titrated hits | recombinant M17LAP, H-Leu-NHMec fluorogenic kinetic assay; higher % means a stronger effect | actives 0.38% (n = 220,000);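 active means compound inhibiting the enzyme by more than half at any dose during confirmatory dose-response retesting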;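 further: plate controls were full reaction with DMSO carrier for no effect and no enzyme background for full effect; strong numbers were not always called active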
P. falciparum M1AAP – P. falciparum M1AAP inhibitors, biochemical, fluorogenic H-Leu-NHMec substrate, 1536-well (AID 1445). recombinant M1AAP, H-Leu-NHMec fluorogenic kinetic assay; higher % means a stronger effect. inhibition, % at 30 µM; hits with a dose series show IC50 in µM. actives 0.42% (n = 220,000);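 active means primary inhibition above the hit cutoff, then over 50% inhibition at one or more dose response concentrations, cut at about 23% in these data, passing the limit was not always enough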;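 further: plate controls were DMSO full reaction for no effect and no enzyme background for full effect; strong numbers were not always called active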
LYP phosphatase – inhibitors of LYP phosphatase, biochemical, fluorescence intensity, uHTS (AID 1779) | recombinant LYP phosphatase, fluorescence intensity; higher % means a stronger effect | actives 0.054% (n = 290,000) | inhibition, % at 11.5 µM, or IC50 in µM where a hit was titrated; in the data active means inhibition above about 50%;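 further: plate controls were vehicle with enzyme for no effect and no enzyme for full effect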
CSM14.1 death rescue – rescue of cells from ER stress-induced death, primary screen, 384-well, CSM14.1, thapsigargin, ATP luminescence (AID 1222) | CSM14.1 thapsigargin-induced death rescue, ATP luminescence; higher % means a stronger effect | cellular ATP content (survival), % at 20 µM; hits with a dose series show EC50 in µM | 190,000 tested, under 10 active;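 active means EC50 below 50 µM in the dose-response confirmation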;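 further: death triggered by thapsigargin at about 15 µM added after 2 h compound pretreatment; cell ATP read after overnight thapsigargin exposure of roughly 18 to 22 hours; normalized against plate controls of thapsigargin alone and 5% DMSO vehicle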
Myeloid diff 2 GFP+ MAC1+ % – recorded beside Myeloid diff 2, whose call it bears; GFP+ MAC1+ double positive, %; measured here: differentiation confirmed by MAC1 staining
* hit, by the source's call; i = inactive; · = not tested or not shown. Only part of the results is shown; count on the stated rates, not on these rows.

SMILES	TNAP activation fold	XIAP displacement	Myeloid diff 2	Myeloid diff 2 GFP+ MAC1+ %	P. falciparum M17LAP	P. falciparum M1AAP	LYP phosphatase	CSM14.1 death rescue
Cc1oc(-c2ccccc2)cc1C(=O)Nc1ccc2ccccc2c1	1.1	-1.4%	i	1.3	-5%	2%	1%	0.9%
Cc1cccc(C(=O)Nc2cccc(OC(=O)c3cccc(C)c3)c2)c1	1.1	-0.2%	i	0.2	-1%	-21%	-6%	1.0%
CC1CCC(=C(C#N)C(=O)Nc2cccc(Cl)c2)CC1 (centres undefined)	1	0.5%	i	5.8	8%	7%	2%	-0.8%
Cc1ccc(Oc2coc3cc(OC(=O)c4cccs4)ccc3c2=O)cc1	1	-0.8%	i	2.1	-1%	2%	5%	-1.0%
COc1ccc(-n2c(N)c(C(=O)NCc3ccco3)sc2=S)cc1	1.1	-4.1%	i	0.7	8%	17%	-9%	1.2%
COCc1nnc(NC(=O)c2ccc(S(=O)(=O)N3CCCCCC3)cc2)o1	1	-4.0%	i	0.1	-2%	-1%	-7%	-0.5%
FC(F)(F)c1cc(Oc2ccc(Cl)cc2)nc(-c2ccccn2)n1	0.9	-1.3%	i	1.4	-4%	8%	-10%	-2.9%
COC(=O)c1sccc1-c1ccc(/C=N/OCc2c(Cl)cccc2Cl)o1	1.1	-1.9%	i	0.8	6%	1%	-3%	0.0%
CC(=O)NC1(NC(C)=O)CCN(C)C(c2ccccc2)C1C (centres undefined)	1	-4.0%	i	1.4	-12%	5%	0%	-3.2%
Cc1ccc(-c2ccc(=O)n(CC(=O)NCCN(C)C)n2)cc1	1.1	0.9%	i	1.9	15%	9%	0%	0.3%
C=CCOC(=O)C1=C(C)NC(SC)=C(C#N)C1c1cccs1 (centres undefined)	1.1	-0.9%	i	0.9	10%	4%	-5%	0.1%
CC(Sc1nc2ccccc2s1)C(=O)N1CCOCC1 (centres undefined)	1.2	-2.2%	i	0.5	2%	4%	-8%	-0.2%
CC(=O)Nc1ccc(S(=O)(=O)NCC2CCC(C(=O)NCCC(C)C)CC2)cc1 (centres undefined)	1.1	-18%	i	0.9	4%	0%	-3%	2.6%
Cn1c(CCN2CCCCC2)nc2cc(NS(=O)(=O)c3ccccc3)ccc21	1.1	-1.5%	i	0.8	-6%	3%	-8%	-3.9%
CC1=NN(c2ccc(C)cc2C)C(=O)C1C(c1ccccc1)C1C(=O)N(c2ccc(C)cc2C)N=C1C (centres undefined)	1	-3.8%	i	0.5	1%	12%	-5%	-0.6%
CC(=O)N(c1ccc2oc(=O)sc2c1)S(=O)(=O)c1cccs1	0.8	-1.1%	i	1.9	1%	22%	-2%	3.0%
CCCC(O)(CCN1CCCCC1)c1ccc(OCC)cc1 (centres undefined)	1.1	-1.9%	i	3.6	-1%	-5%	-4%	1.7%
O=C(O)COc1ccc(-c2nccc(-c3cccs3)n2)cc1	1.1	-3.6%	·	·	13%	9%	2%	-2.3%
CCCOc1ccc2oc(=O)c3c(c2c1)CCCN3C(=O)CN1CCCC(C(=O)OCC)C1 (centres undefined)	1.1	-4.3%	i	1.0	20%	8%	-2%	15%
COc1ccc(N2CCN(c3oc(Cc4ccccc4)nc3C#N)CC2)cc1	1.1	-2.5%	i	0.4	0%	-2%	0%	-0.9%
c1ccc(-c2csc(N3CCc4ccccc4C3)n2)cc1	1.1	-5.8%	i	0.8	5%	-1%	-3%	-1.8%
Cc1cccc(NC(=S)NC(=O)c2cc(-c3ccccc3)nc3ccccc23)c1	1.1	-0.5%	i	0.4	-5%	5%	1%	-0.5%
CC(C)C(NS(=O)(=O)c1cccs1)C(=O)Nc1nc(C(C)(C)C)cs1 (centres undefined)	1.1	0.0%	i	7.7	-4%	-5%	-1%	3.0%

Complete entries, quoted from the list:
Listed for CC(=O)N(c1ccc2oc(=O)sc2c1)S(=O)(=O)c1cccs1 = TNAP activation fold: 0.8; XIAP displacement: -1.1%; Myeloid diff 2: i; Myeloid diff 2 GFP+ MAC1+ %: 1.9; P. falciparum M17LAP: 1%; P. falciparum M1AAP: 22%; LYP phosphatase: -2%; CSM14.1 death rescue: 3.0%
Listed for CCCOc1ccc2oc(=O)c3c(c2c1)CCCN3C(=O)CN1CCCC(C(=O)OCC)C1 (centres undefined) = TNAP activation fold: 1.1; XIAP displacement: -4.3%; Myeloid diff 2: i; Myeloid diff 2 GFP+ MAC1+ %: 1.0; P. falciparum M17LAP: 20%; P. falciparum M1AAP: 8%; LYP phosphatase: -2%; CSM14.1 death rescue: 15%

Among those listed so far, two contain an aryl methoxy group:
SMILES	TNAP activation fold	XIAP displacement	Myeloid diff 2	Myeloid diff 2 GFP+ MAC1+ %	P. falciparum M17LAP	P. falciparum M1AAP	LYP phosphatase	CSM14.1 death rescue
COc1ccc(-n2c(N)c(C(=O)NCc3ccco3)sc2=S)cc1	1.1	-4.1%	i	0.7	8%	17%	-9%	1.2%
COc1ccc(N2CCN(c3oc(Cc4ccccc4)nc3C#N)CC2)cc1	1.1	-2.5%	i	0.4	0%	-2%	0%	-0.9%

Some values from the results shown:
Value of CC1=NN(c2ccc(C)cc2C)C(=O)C1C(c1ccccc1)C1C(=O)N(c2ccc(C)cc2C)N=C1C (centres undefined) under CSM14.1 death rescue: -0.6%
Value of CCCOc1ccc2oc(=O)c3c(c2c1)CCCN3C(=O)CN1CCCC(C(=O)OCC)C1 (centres undefined) under LYP phosphatase: -2%
Value of Cc1cccc(NC(=S)NC(=O)c2cc(-c3ccccc3)nc3ccccc23)c1 under P. falciparum M17LAP: -5%
Value of O=C(O)COc1ccc(-c2nccc(-c3cccs3)n2)cc1 under P. falciparum M1AAP: 9%
